VDR inhibitor – Inhibitors of the vitamin D receptor (VDR): qHTS; Potency, µM, without a hit: max response, negative = inhibition, most hits filed as inhibitors; 400,000 compounds, 0.93% hits; VDR-SRC2-3 peptide fluorescence polarization, 2 h; AID 504847, 2011; active means well fitted inhibition curve with a large enough effect; inconclusive means small, poorly fitted or top-dose-only effect, or another doubt; inactive means no such curve, though single readings can be large or run the other way; further: series mostly up to about 120 µM
Target sequence (P11473 whole entry, looked up): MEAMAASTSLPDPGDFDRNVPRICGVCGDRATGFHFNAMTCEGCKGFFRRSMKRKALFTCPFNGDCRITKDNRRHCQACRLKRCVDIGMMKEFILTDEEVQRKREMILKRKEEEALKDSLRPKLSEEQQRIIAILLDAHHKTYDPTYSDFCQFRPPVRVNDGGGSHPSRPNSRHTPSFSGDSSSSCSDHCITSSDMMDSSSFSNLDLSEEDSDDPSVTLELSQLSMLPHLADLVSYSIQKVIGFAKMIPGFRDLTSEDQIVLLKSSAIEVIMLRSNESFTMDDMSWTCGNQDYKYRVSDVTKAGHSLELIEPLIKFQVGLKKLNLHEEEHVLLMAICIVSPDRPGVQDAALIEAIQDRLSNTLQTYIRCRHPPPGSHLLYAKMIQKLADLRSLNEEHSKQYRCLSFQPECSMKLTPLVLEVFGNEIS
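The screen uses fluorescence polarization to detect compounds that interfere with recruitment of the SRC2-3 coactivator peptide to VDR; plates are read after 2 h at room temperature.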
* hit, by the source's call; ? = inconclusive; & = joins results of further samples; [ ] = dose if it differs, or a comment. On the % scale 0 is the no-effect control and ±100 the full control effect; potency means the concentration at half of the fitted maximal effect. This is a subset (hit frequency here may not be typical).

Molecule | VDR inhibitor
COc1ccc(Cl)cc1NC(=O)CN(C)CC(=O)NC(C)c1ccccc1 (stereo not given) | -2.3%
O=C(Cc1ccc(Cl)cc1)N1CCOCC1 | -10.7%
Cc1cc(NC(=O)CCNS(=O)(=O)c2cccc3nsnc23)ccc1Br | 1.2%
Cc1cc(C)n(/N=C/c2ccc(C(C)C)cc2)c(=O)c1C#N | -16.8%
Cc1ccc(NC(=O)CNCC2CCCCC2)cc1S(=O)(=O)N(C)C | -20.2%
CC1Cc2ccccc2N1S(=O)(=O)c1ccc2c(c1)n(C)c(=O)c(=O)n2C (stereo not given) | 5.7%
CN(C)S(=O)(=O)Nc1ccc(Oc2ccccc2)cc1 | -1.5%
COc1ccc(C(CNC(=O)COc2cc(C)cc(C)c2)N2CCCCC2)cc1 (stereo not given) | 8.7%
O=C(Nc1ccc(Cl)cc1)OCCn1nnnc1C(c1ccccc1Cl)N1CCOCC1 (stereo not given) | ?
CCC(=O)c1ccc(-c2ccccc2)cc1 | 13.7%
COC(=O)c1ccc(N/C=C/C(=O)c2ccccc2)cc1 | -4.5%
COc1ccccc1C(=O)Nc1cc2c(cc1N1CCCC1)n(C)c(=O)c(=O)n2C | 16.4%
CCOc1ccc(NC(=O)CCC(=O)N/N=C2\CCCc3ccccc32)cc1 | -7.5%
O=C(CCCNc1ccccc1)N/N=C/c1cccs1 | -7.3%
COc1ccc(N2CCN(C(=O)COC(=O)c3cccc(S(=O)(=O)Nc4ccccc4OC)c3)CC2)cc1 | -9.0%
CSc1ccc(S(=O)(=O)NCC(=O)OCC(=O)NCCc2ccccc2)cc1[N+](=O)[O-] | -0.4%
O=C(NCc1cccnc1)c1cccnc1-c1nc2ccccc2s1 | 9.1%
CCC(C)(C)NC(=O)C(c1ccc(O)cc1)N(Cc1ccco1)C(=O)CCC(=O)Nc1ccccn1 (stereo not given) | -13.6%
CCn1c(NCc2cc(Cl)ccc2O)nc2ccccc21 | -13.0%
C=CCn1c(=S)[nH]c2sc3c(c2c1=O)CCC3 | 6.1%
CCN1CCN(C(=O)CN(C)S(=O)(=O)c2ccc(OC)c(C)c2)CC1 | -1.5%
CN(CCC#N)C(=S)Nc1ccc(F)cc1 | 4.4%
CCOC(=O)CN(C(=O)COc1nc(C)cc(C)c1C#N)c1ccc(F)cc1 | -14.3%
Cc1nc(N)c2c(Cc3cccc4ccccc34)nn(C(C)(C)C)c2n1 | -13.9%
Cc1cccc(NC(=O)CSc2nc(=O)n(CCN3CCOCC3)c3c2CCC3)c1 | 7.4%
CCN1C(=O)c2ccccc2Sc2ccc(NC(=O)c3ccc(C#N)cc3)cc21 | 14.5%
CCN1CCN(CCCNC(=O)c2ccc3c(c2)sc2nc(-c4ccc(OC)cc4)cn23)CC1 | 3.9%
Cc1noc(C)c1COc1ccc(C(=O)OCC(=O)NC2CCCCC2C)cc1 (stereo not given) | 6.9%
CC(C)N(C)CCOC(=O)/C=C/c1ccccc1 | -15.3%
CCOC(=O)c1ccccc1NC(=O)COC(=O)CCCOc1ccccc1 | -14.1%
COc1ccc(NC(=S)NC(=O)C2CCCCC2)cc1 | -15.1%
CC1(C)CC(=O)C2=C(C1)N(c1ccc(Cl)cc1)C(=O)C2(O)C(F)(F)F (stereo not given) | 16.7%
COc1cc(C(=O)NCCC(=O)N2CCCCC2)cc(OC)c1OC | 3.8%
C=CCn1c(SCc2c(F)cccc2Cl)nnc1-c1ccco1 | -0.5%
CCS(=O)(=O)N1Cc2ccccc2CC1C(=O)NC(C)C12CC3CC(CC(C3)C1)C2 (stereo not given) | -9.4%
CCCn1c(=O)c(C(=O)NCc2ccccc2OC)c(O)c2ccccc21 | -4.1%
CCC(C)[C@H](NC(=O)NCc1cccc(OC)c1)C(=O)OC (stereo not given in full) | 2.6%
CCCCC1=CC2=C(c3ccco3)C(=O)C(C)(OC(=O)c3ccc(OC)cc3)C(=O)C2=CN1CCCCO (stereo not given) | -13.0%
O=C(/C=C/c1ccccc1Cl)Nc1ccncc1 | 3.9%
Cc1ccc(C(=O)CSC2=C(C#N)C(c3ccco3)CC(=O)N2)c(C)c1 (stereo not given) | -8.1%
Cc1ccc(S(=O)(=O)N2CCN(c3nc(-c4ccc(C)s4)nc4ccccc34)CC2)cc1 | -11.9%
Cc1ccc(-c2nnc(SCC(=O)CC(=O)Nc3ccccc3)n2-c2ccccc2)cc1 | -10.3%
C[C@H]1CC[C@@]2(O[C@H](CCO)C[C@H](O)[C@H]2O)O1 | 13.2%
Nc1cc(S(=O)(=O)N2CCOCC2)ccc1N1CCCCC1 | 25.1µM*
O=C(O)Cn1c(O)c(C2=c3ccccc3=NC2=O)sc1=O | 10µM*
NC(=O)CC(NC(=O)Cc1ccc(Br)cc1)c1ccc(NCc2ccc(F)cc2)c([N+](=O)[O-])c1 (stereo not given) | -20.4%
Cc1ccc(S(=O)(=O)Nc2ccc3c(c2)OCCO3)cc1C | -2.3%
CCOC(=O)c1c(-c2ccccc2)oc2ccc(O)c(CN3CCCC3)c12 | 40.7%
O=C(CCn1c(=O)[nH]c2ccsc2c1=O)NCc1ccc(F)cc1 | -19.9%
CC(C)(Cc1ccc(O)cc1)NC(=O)CC(=O)N=Nc1c(O)[nH]c2ccc(Br)cc12 | 16.6%
O=C(O)c1cc(-c2cccc(Cl)c2)nc2nc(N3CCCCC3)sc12 | -8.3%
O=C(c1ccc(N2CCOCC2)cc1)c1cccs1 | -3.2%
CCc1nc(N2CCN(C(C)=O)CC2)c2c3c(sc2n1)CC(C(C)(C)C)CC3 (stereo not given) | -28.3%
CCCCC1=CC2=C(c3ccco3)C(=O)C(C)(OC(=O)c3ccc(OC)cc3)C(=O)C2=CN1C1CC1 (stereo not given) | ?
Cc1ccccc1N1CCN(C2CCCN(C(=O)c3ccccn3)C2)CC1 (stereo not given) | -23.6%
Cc1ccccc1C(=O)NNC(=S)NC(=O)c1ccc(Cl)cc1Cl | -17.1%
CCN(CC(=O)Nc1ccccc1OC)C(=O)CC1CC2CCC1C2 (stereo not given) | 1.6%
Cc1nonc1N1CCN(Cc2cn[nH]c2-c2ccc3c(c2)OCO3)CC1 | 4.9%
CC(NC(=O)CN(c1cccc(C(F)(F)F)c1)S(=O)(=O)c1ccc(Cl)c([N+](=O)[O-])c1)c1ccccc1 (stereo not given) | 1.1%
CCOC(=O)c1c(C)nc(C)c(C(=O)OCC)c1-c1ccccc1 | -4.7%

The list continues.
molecule	VDR inhibitor
COc1ccc(N2CCN(C(=O)c3cc(S(=O)(=O)N4CCC(C)CC4)cn3C)CC2)cc1	8.5%
COc1cccc(CNC(=O)COC(=O)CCc2cc(OC)c(OC)c(OC)c2)c1	-4.5%
CCOC(=O)C1(CC2CCCCO2)CCN(S(=O)(=O)c2ccsc2)CC1 (stereo not given)	6.6%
CCCCCN(C(=O)CCC(=O)OCc1ccc(Cl)cc1Cl)c1c(N)n(CCCC)c(=O)[nH]c1=O	-9.0%
COc1ccc(C)cc1NC(=O)CN(C)S(=O)(=O)c1ccc2c(c1)n(C)c(=O)c(=O)n2C	2.2%
Cc1cc(S(=O)(=O)N(Cc2cccs2)Cc2ccccc2F)ccc1-n1cnnn1	-17.8%
Cc1nc(S(=O)(=O)N2CCN(c3ccccc3F)CC2)cn1C	7.4%
CCOc1ccc(C2NC(=O)NC(C)=C2[N+](=O)[O-])cc1OC (stereo not given)	-0.6%
O=C1CCN(S(=O)(=O)c2cccs2)c2ccc(C(F)(F)F)cc2N1	-11.5%
CCOc1ccc(N=Nc2ccc(O)c3ncccc23)cc1	-3.3%
NC(Cc1ccccc1)C(O)(c1ccccc1)c1ccccc1 (stereo not given)	-11.6%
CC1=CC2C(CC1=O)C(C)=CCC2C(C)C (stereo not given)	-19.2%
Cc1cccc(-n2c(N)c(-c3nc4ccccc4n3C)c3nc4ccccc4nc32)c1	-3.8%
CCOc1ccc(C2Nc3ccccc3C(CC)(CC)O2)cc1 (stereo not given)	-21.1%
CN(CC(=O)Nc1ccccc1Br)C(=O)c1cccc([N+](=O)[O-])c1	15.0%
Cc1[nH]nc(NCCO)c1[N+](=O)[O-]	-1.7%
O=C(O)c1ccc2nc(-c3cc4cccc(O)c4oc3=O)[nH]c2c1	16.8%
CCCc1c(O)nc(SCCN(CC)CC)n(C(=O)c2ccccc2)c1=O	6.7%
COC(=O)C1=C(C)N=C2SC(C)C(=O)N2C1c1ccc(C(=O)OC)cc1 (stereo not given)	-4.3%
COc1cc(C(=O)NCC(c2ccco2)N2CCc3ccccc3C2)cc(OC)c1OC (stereo not given)	-8.6%

Of the compounds above, 4 have bromine:
molecule	VDR inhibitor
Cc1cc(NC(=O)CCNS(=O)(=O)c2cccc3nsnc23)ccc1Br	1.2%
NC(=O)CC(NC(=O)Cc1ccc(Br)cc1)c1ccc(NCc2ccc(F)cc2)c([N+](=O)[O-])c1 (stereo not given)	-20.4%
CC(C)(Cc1ccc(O)cc1)NC(=O)CC(=O)N=Nc1c(O)[nH]c2ccc(Br)cc12	16.6%
CN(CC(=O)Nc1ccccc1Br)C(=O)c1cccc([N+](=O)[O-])c1	15.0%

Continuation:
molecule	VDR inhibitor
Cc1ccc(CSc2ccc(-c3cccs3)nn2)cc1	2.9%&-2.3%
Cc1cc(C)cc(OCC(=O)Nc2nc3ccc([N+](=O)[O-])cc3s2)c1	27.2%
CN1CCCC(OC(=O)/C(C#N)=C/c2ccccc2)C1 (stereo not given)	-3.0%
CCN(C(=O)c1ccc2c(=O)n3c(nc2c1)CCCCC3)c1cc(C)ccc1C	6.5%
CSc1nc(C)cc(Oc2ccc(OCCOc3ccccc3)nn2)n1	-4.7%
Cc1cc(-c2ccc(Cl)cc2)oc(=O)c1NC(=O)c1ccccc1	-13.8%
CCOc1ccc(OCCC(=O)OCC(=O)N2CCN(S(=O)(=O)c3ccc(C)cc3C)CC2)cc1	-0.9%
CCOC(=O)C1=CNS(=O)(=O)NC1c1ccc(C(F)(F)F)cc1 (stereo not given)	6.0%
CCOc1ccc(OCCC(=O)OCC(=O)NCCc2ccc(S(N)(=O)=O)cc2)cc1	-4.3%
CCC(=Cc1ccccc1OC)c1ccncc1	-5.8%

7 entries from above, sorted by molecular weight, ascending:
molecule	VDR inhibitor
CN1CCCC(OC(=O)/C(C#N)=C/c2ccccc2)C1 (stereo not given)	-3.0%
Cc1cc(-c2ccc(Cl)cc2)oc(=O)c1NC(=O)c1ccccc1	-13.8%
CCOC(=O)C1=CNS(=O)(=O)NC1c1ccc(C(F)(F)F)cc1 (stereo not given)	6.0%
Cc1cc(C)cc(OCC(=O)Nc2nc3ccc([N+](=O)[O-])cc3s2)c1	27.2%
CSc1nc(C)cc(Oc2ccc(OCCOc3ccccc3)nn2)n1	-4.7%
CCN(C(=O)c1ccc2c(=O)n3c(nc2c1)CCCCC3)c1cc(C)ccc1C	6.5%
CCOc1ccc(OCCC(=O)OCC(=O)NCCc2ccc(S(N)(=O)=O)cc2)cc1	-4.3%

Next part:
molecule	VDR inhibitor
Cc1ccc(S(=O)(=O)N(CC(=O)N2CCN(c3ccccc3F)CC2)C2CCCCC2)cc1	-15.5%
O=C(c1ccco1)N1CCN(c2nc3c(Cl)cccc3s2)CC1	1.7%
O=S(=O)(NCC1CCCO1)c1ccc(-c2ccc(S(=O)(=O)NCC3CCCO3)cc2)cc1 (stereo not given)	7.2%
O=C(NCCCN1CCCC1=O)c1cc2nc(-c3ccco3)cc(C(F)(F)F)n2n1	-1.3%
COC(=O)[C@@H](NC(=O)Nc1cc(Cl)ccc1C)C(C)C	-0.5%
COc1cc(C(=S)N2CCOCC2)ccc1OC(=O)c1cc([N+](=O)[O-])c(C)c([N+](=O)[O-])c1	-8.4%
COc1cc2c(cc1OC)C(C)N(C(=O)C1COc3ccccc3O1)CC2 (stereo not given)	-2.2%
CC(C)(C)n1nc2c(c1NC(=O)c1cccc(C(F)(F)F)c1)CS(=O)C2 (stereo not given)	1.3%
CNC(=O)c1nc[nH]c1C(=O)NC	-5.7%
CCOC(=O)CCP(=O)(O)C(C)(O)c1ccccc1 (stereo not given)	-8.2%
Cc1ccccc1NC(=O)Cc1c[nH]c2ccccc12	-14.5%
CCCN(CC1CCCO1)C(=O)CCc1nnc(CCc2ccc(OC)cc2)o1 (stereo not given)	?
O=C(CSC(=S)N1CCOCC1)Nc1ncc2c(n1)CC(c1ccco1)CC2=O (stereo not given)	-18.3%
COc1ccccc1CCNS(=O)(=O)c1cc2c3c(c1)C(C)C(=O)N3CCC2 (stereo not given)	4.8%
COc1ccc(-n2c(Cc3cccn3C)nnc2SCC(=O)NCc2ccco2)cc1	-16.1%
COC(=O)CN(C#N)c1nc(C)cc(C)n1	21.2%
O=C(COC(=O)c1cccnc1Nc1cccc(C(F)(F)F)c1)NCc1ccc2c(c1)OCO2	10.1%
CCOC(=O)N1CCN(CC(=O)Nc2ccc(F)cc2)CC1	32.2%[activator]
Cc1cc(C(=O)CN2C(=O)NC3(CCCC3)C2=O)c(C)n1-c1ccc2c(c1)OCO2	-5.8%
O=C(NC1CC(=O)N(c2cccc(F)c2)C1)C1CCCC1 (stereo not given)	-6.2%
Cc1cccc(CCN(C(=O)c2csnn2)C(C(=O)NC2CCCC2)c2ccco2)c1 (stereo not given)	-0.3%
CC(=O)N(CCN1CCOCC1)Cc1cc2cc3c(cc2nc1Cl)OCO3	-8.6%
CCC(=O)Nc1c(-c2ccccc2Cl)c(=O)c2ccccc2n1C	8.5%
Cc1ccc2c(c1)c1c3n2CCN(C(=O)CN2CCN(C)CC2)C3CCC1 (stereo not given)	7.2%
COc1ccc(S(=O)(=O)n2ccnc2)cc1C(C)(C)C	3.2%
c1ccc(COC(CN2CCCCCC2)CN2CCCCCC2)cc1	-17.6%
COc1ccc(C)cc1NC(=S)N1CCN(c2ncccn2)CC1	-20.3%
CN(C)c1ccc(NC(=O)CCN2CCN(c3ccccn3)CC2)cc1	-9.8%
CCN(CC)c1cc(C)c2cc(NC(=O)c3cccc(OC)c3OC)ccc2n1	13.4%
O=C(Cc1c(F)cccc1Cl)Nc1ccncc1	11.1%
CCN(CC)CCOc1ccc(C(O)(Cc2ccc(Cl)cc2)c2ccc(C)cc2)cc1 (stereo not given)	?
